ClpP mod: qHTS Assay for Activators of ClpP; ATP-dependent Clp protease proteolytic subunit (Bacillus subtilis (strain 168)), P80244; purified B. subtilis ClpP, FRET peptide cleavage, 20 min; Potency, µM (series often up to 57.5 µM), without a hit: top-dose activity change, negative = active; 1.9% of 340,000 active; AID 651965, 2013; active = well fitted falling curve with a large enough effect; inconclusive = small, poorly fitted or top-dose-only effect; inactive = no such curve, though single readings can be large or run the other way; also: potency is read from the fitted curve at half-maximal effect; the source files actives as falling curves though it sought activators and does not explain the sign; nearly all actives have a fitted effect of over 65% in size; many hits overshoot -100%
Target sequence (P80244 whole entry, looked up): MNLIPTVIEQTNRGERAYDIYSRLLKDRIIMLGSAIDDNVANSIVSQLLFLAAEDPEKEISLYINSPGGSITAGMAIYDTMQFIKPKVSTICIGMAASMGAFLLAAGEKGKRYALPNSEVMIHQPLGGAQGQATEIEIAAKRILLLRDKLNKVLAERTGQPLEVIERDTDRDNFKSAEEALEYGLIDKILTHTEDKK
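ClpP 10 microg/mL final, pH 8 Tris/KCl buffer with BSA, glycerol, Tween-20; compound pinned in; FRET-FV substrate; RT 20 min; Ex320/Em430; ΔFRET vs ADEP 5.8 microM, DMSO, no enzyme.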
PINK1 expr mod: changes PINK1 expression; Potency, µM (doses to about 76.6 µM), without a hit: top-dose activation (PINK1 increase), most hits filed as activators; AID 624263; 0.2% of 410,000 active; PINK1 immunofluorescence, high-content cytometry, 24 h; active = well fitted activation curve with a large enough effect; inconclusive = small, poorly fitted or top-dose-only effect; inactive = flat fitted curve, though single readings scatter; cell line not stated here;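 also: potency is read from the fitted curve at half-maximal effect; % of control where 0% means no effect; nearly all actives have a fitted effect of over 65% in size; a mitochondrial uncoupler was the plate control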
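Compound titrations (5 concentrations, 24 h) on a stable cell line; DMSO and CCCP controls. Endpoint: fixed-cell PINK1 immunofluorescence with mitochondrial, cell and nuclear markers, scanned by microplate cytometer.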
TRPV1 potentiator: potentiators of human vanilloid receptor 1 (TRPV1); 0.02% of 320,000 active; TRPV1-expressing cells, Fluo-8 calcium influx, capsaicin EC20 potentiation; host cell line not named in the record; control for the full effect not named in the record; potentiation, % at 8.33 µM; Q8NER1; active means potentiation above 80%; inconclusive means 30% to 80%; inactive means below 30%; also: 0% is about no effect
Target sequence (Q8NER1 whole entry, looked up): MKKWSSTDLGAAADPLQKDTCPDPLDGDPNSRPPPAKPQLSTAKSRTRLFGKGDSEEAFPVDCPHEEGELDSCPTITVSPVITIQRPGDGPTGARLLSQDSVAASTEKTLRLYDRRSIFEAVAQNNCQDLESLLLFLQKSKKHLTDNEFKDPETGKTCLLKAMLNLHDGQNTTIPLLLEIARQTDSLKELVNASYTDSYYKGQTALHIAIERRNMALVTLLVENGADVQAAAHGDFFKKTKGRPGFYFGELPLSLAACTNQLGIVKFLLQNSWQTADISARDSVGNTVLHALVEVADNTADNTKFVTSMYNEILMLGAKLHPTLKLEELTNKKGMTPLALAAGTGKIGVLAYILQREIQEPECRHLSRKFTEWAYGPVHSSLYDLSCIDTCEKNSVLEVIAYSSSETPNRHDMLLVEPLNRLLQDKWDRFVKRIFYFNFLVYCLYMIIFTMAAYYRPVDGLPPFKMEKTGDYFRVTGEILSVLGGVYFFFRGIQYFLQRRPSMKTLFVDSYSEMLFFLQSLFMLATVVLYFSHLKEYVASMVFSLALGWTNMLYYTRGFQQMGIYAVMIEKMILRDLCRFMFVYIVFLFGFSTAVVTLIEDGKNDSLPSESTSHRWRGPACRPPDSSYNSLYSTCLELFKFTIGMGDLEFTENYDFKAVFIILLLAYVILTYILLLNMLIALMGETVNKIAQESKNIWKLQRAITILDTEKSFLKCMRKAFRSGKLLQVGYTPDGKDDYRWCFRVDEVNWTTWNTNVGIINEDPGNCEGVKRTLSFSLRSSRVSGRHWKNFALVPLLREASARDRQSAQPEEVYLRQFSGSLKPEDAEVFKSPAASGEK
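TRPV1-expressing cells were cultured overnight at 35.5C and loaded with Fluo-8 calcium dye for 40 to 90 min at room temperature. After a 10 s baseline, compound was added and calcium influx was read kinetically for 3 min (ex 480/em 520 nm).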
Menin MLL FP FL: menin-MLL binding inhibition, fluorescein peptide. AID 1766. Fluorescence polarization, fluorescein-MLL peptide displacement from menin. 290,000 tested, under 10 active. FP activity change, % at 61.4 µM; inconclusive = falling polarisation curve, or a change in total fluorescence; inactive = total fluorescence flat and polarisation flat or rising; no compound was filed as active; the % refers to the polarisation; negative = inhibition;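 also: % of control where 0% means no effect; inhibitors lower the polarisation; unlabelled MLL peptide was the positive control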
TRPML1 blocker: blocks the human TRPML1 channel. Q9GZU1. TRPML1-inducible cells, Ca2+ dye fluorescence, FDSS; stronger effect = lower value; inhibition of EC80 agonist-evoked calcium signal. activity change, negative = inhibition, % (test concentration not listed). 0.02% of 390,000 active. AID 624415; in the data active means activity change below about -50%; inconclusive means about -30% to -50%; inactive means above about -30%;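 also: stimulus is agonist 54-4 at its EC80 concentration; % is scaled to controls: 0 for no effect and ±100 for the full control effect; compound concentration not given in the record; the text of the record puts the active cut at -80%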
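Tet-induced TRPML1-DL cells loaded with Ca8 no-wash calcium dye were read kinetically on FDSS. Compound addition was followed by EC80 agonist 54-4 (4 uM final); inhibition was read over 110 s.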
Sfp inh: Sfp phosphopantetheinyl transferase inhibition | Q9F4F7 | Biochemical Sfp PPTase activity, qHTS | Potency, µM, inactives show max response, negative = inhibition, most hits filed as inhibitors | 3.5% of 310,000 active | AID 1490; active = well fitted inhibition curve with a large enough effect; inconclusive = small, poorly fitted or top-dose-only effect, or another doubt; inactive = no such curve, though single readings can be large or run the other way;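 also: the enzyme is Sfp with the accession as filed and its product quenches rhodamine fluorescence; potency is read from the fitted curve at half-maximal effect; 0% = enzyme reaction without inhibitor and -100% = no enzyme wells; top concentration of the series not given in the record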
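Fluorescence-quenching assay: 15 nM Sfp-PPTase preincubated 15 min at room temperature with compound, then 5 uM rhodamine-CoA and 12.5 uM BHQ-2-labelled YbbR peptide added. Fluorescence (ex 525/em 598 nm) read at start and after 30 min; difference gives rate.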
TRPML1 ag: human mucolipin-1 channel agonism. Q9GZU1. 0.12% of 410,000 active. activation, % (concentration not given with the values). TRPML1-expressing cells, Ca2+ dye fluorescence, FDSS; host cell line not named in the record; reference of the full effect not given here; in the data active = activation above about 50%; inconclusive = about 30% to 50%; inactive = below about 30%; also: 0% is about no effect; the text of the record puts the active cut at 80%
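Agonist activity was taken from a 110 s kinetic Ca2+ dye read on the FDSS after pinning compounds onto TRPML1-DL cells. The cells were seeded at 1,500/well with Tet inducer, incubated about 16 h, then dye-loaded at room temperature.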
* marks the source's active call; other numbers are inactive results; ? = inconclusive; . = no result given; & = joins results of further samples; [ ] = remark or other dose.

SMILES | ClpP mod | PINK1 expr mod | TRPV1 potentiator | Menin MLL FP FL | TRPML1 blocker | Sfp inh | TRPML1 ag
COc1cccc(-c2nc(SCC(=O)N3CCc4ccccc43)c3c(=O)n(C)c(=O)n(C)c3n2)c1 | 0.6% | 4.5% | . | . | -10.6 | . | -0.7
Cc1cccc(C2=NN(c3ccccc3)[C@@H](C(=O)N3CCOC3=O)[C@@H]2c2ccc(F)cc2)c1 | 3.9% | -1.1% | . | 30.3[activator] | -1.5 | 12.9% | 1.9
CN(C)CCNC(=O)c1coc(=O)c(Br)c1 | -7.7% | 3.6% | -3.2 | 3.7 | -6.5 | 4.4% | -0.6
Cc1ccc(CN2C(=O)CSC(C)C2=O)cc1 (configuration not stated) | . | 1.5% | -20.2 | 7.0 | -1.3 | 11.2% | -0.1
Cc1ccc(Cl)cc1N1CCN(C(=O)CSc2nnc3n2C(C)(C)Cc2ccccc2-3)CC1 | -4.1% | -0.9% | -20.2 | 2.1 | 10.5 | 6.0% | 0.3
CCC(=O)Nc1nonc1-c1nc2ccccc2n1CC(C)C | 0.4% | -1.4% | -7.4 | 5.3 | 20.6 | 6.3% | 1.6
Cc1cc(NS(=O)(=O)c2ccc(NC(=O)CCSc3ccc(F)cc3)cc2)nc(C)n1 | 1.3% | 0.5% | 5.6 | 4.1 | -6.4 | 31.8%[activator] | -0.7
COc1ccccc1NC(=O)Cc1c(C(=O)O)[nH]c2ccc(Cl)cc12 | -1.6% | 0.4% | . | . | 21.2 | . | -0.6
N#Cc1c(C(F)(F)F)cc(-c2ccccc2Cl)[nH]c1=O | 3.55µM* | 1.0% | -6.6 | -2.1 | 40.2 | 7.8% | 2.4
COc1ccc(CNC(=O)C23CC4CC(CC(Br)(C4)C2)C3)cc1 | . | 0.2% | 3.6 | -5.2 | -18.3 | -0.5% | 0.8
Cc1ccc(CS(=O)Cc2ccc(C(=O)NC3CCC(C)CC3)o2)cc1 (configuration not stated) | 0.6% | 0.4% | -2.8 | -0.3 | 1.4 | 5.2% | -1.1
COc1cc(OC)cc(C(=O)N[C@H](C(=O)OCC(=O)Nc2cccnc2Cl)C(C)C)c1 | -3.3% | 0.6% | -5.4 | . | -1.3 | . | 0.2
O=C1CC(c2ccccc2Cl)=NN(c2ncnc3ccccc23)C1=O | 0.1% | 2.4% | 4.4 | 19.2 | -0.7 | 2.0% | -0.3
Cn1nnnc1SCC(=O)Nc1cccc(S(=O)(=O)N2CCCCC2)c1 | -0.8% | 2.0% | . | . | 3.4 | . | 2.4
Cc1ccc(NC(=O)c2ccn(C(=O)Nc3ccccc3)n2)c(C)c1 | . | 3.3% | -22.7 | -7.2 | 2.8 | 1.7% | -0.3
CCOc1ccc2nc(SCC(=O)N3c4ccccc4Sc4ccccc43)c(C#N)cc2c1 | -2.8% | 1.2% | -3.4 | 10.4 | 4.4 | -9.9% | 3.3
O=c1[nH]c(-c2ccccc2)c(-c2ccccc2)o1 | 3.9% | 0.7% | 6.0 | -6.4 | 28.0 | 14.1% | 0.3
CC1Cc2ccccc2N1CC(=O)Nc1ccc(S(N)(=O)=O)cc1 (configuration not stated) | . | 2.7% | 0.3 | 4.8 | 6.2 | 17.5% | -0.6
O=C(O)CC1C(=O)OCN1C(=O)OCc1ccccc1 (configuration not stated) | -2.3% | . | 0.6 | -3.5 | 4.7 | 9.5% | 1.4
Cc1ccc(S(=O)(=O)Nc2ccc3c(c2)C(=O)N([C@H](C)CO)C[C@@H](C)[C@@H](CN(C)C(=O)Nc2cccc4ccccc24)O3)cc1 | -16.2% | 1.7% | . | . | -9.2 | . | -0.3
Cc1n[nH]c(C)c1S(=O)(=O)N1CCCC(C(=O)O)C1 (configuration not stated) | -0.9% | 0.2% | . | . | -12.5 | . | -0.1
Cc1ccc2c(CNCCc3ccco3)c(C(=O)O)n(Cc3ccc(F)cc3)c2c1 | -21.8% | -0.1% | . | . | -1.9 | . | 0.3
CCOc1cc(CN2CCCC(N3CCc4ccccc4C3)C2)ccc1O (configuration not stated) | -0.5% | -0.2% | 9.8 | -9.8 | 7.1 | -3.3% | -0.4
CCOc1cc(C#N)ccc1OCC(=O)N1CCc2ccccc2C1 | 1.1% | 1.9% | ? | 4.8 | 31.4 | 5.5% | 1.8
COc1ccc(CCNC(=O)Cn2c(=O)n(-c3cc(OC)c(OC)c(OC)c3)c(=O)c3ccccc32)cc1OC | -1.0% | 0.4% | . | . | 0.6 | . | -0.6
Nc1nnnn1/N=C/c1ccccc1OCc1ccc(Cl)cc1Cl | -19.6% | 17.7%[38.3 µM] | -14.0 | -0.8 | -2.2 | -0.8% | -0.5
CN(C)c1ccc(C2C=C(c3ccc(Cl)cc3OC(F)F)Nc3ncnn32)cc1 (configuration not stated) | 1.5% | 2.0% | -4.5 | ? | 3.6 | -18.3% | 21.2
CCOc1ccc(-c2c(C)nn3c(C)c(C(=O)NCCc4ccc(C)cc4)cnc23)cc1OCC | -5.8% | 5.8% | . | . | 1.3 | . | 2.4
C=CCc1c(C)nc(SCC(N)=O)[nH]c1=O | 0.8% | 0.8%[38.3 µM] | -6.5 | 2.9 | -8.8 | -5.0% | -0.3
Cc1nnc(SCC(=O)N2CCC(C(=O)Nc3nccs3)CC2)n1Cc1ccccc1 | 1.8% | -3.6% | -1.9 | 2.5 | 6.2 | 19.6% | 4.6
O=C(O)/C=C/c1cccc(B(O)O)c1 | 1.4% | -0.6% | . | -7.5 | . | 15.5% | -0.3
COCCNC(=O)CSc1nnc(CCCN2C(=O)c3cccc4cccc(c34)C2=O)n1-c1ccccc1 | ? | -1.6% | 3.5 | 4.7 | 24.8 | 26.2% | 0.0
COCCn1c(C)cc(/C=C2/NC(=O)N(c3ccc(Cl)cc3)C2=O)c1C | ? | 0.7% | -1.7 | 0.7 | 22.7 | 23.5% | 1.1
CN1CCN(C(=O)CCCOc2cc(=O)n(C)c3ccccc23)CC1 | -8.2% | 0.5% | 3.9 | -0.3 | -12.5 | 14.6% | 0.5
O=C(c1ccco1)n1nc(-c2ccccc2)nc1SCc1ccccc1 | -0.8% | -0.4% | -7.1 | 1.7 | -12.1 | 0.0% | -0.3
Cn1c(=O)oc2cc(S(=O)(=O)N3CCC(C(=O)NCc4cccs4)CC3)ccc21 | -3.5% | 4.8% | -1.2 | -0.1 | -1.5 | -13.2% | -0.4
Cc1nccn1-c1ccc(NC(=O)[C@H]2O[C@@H](n3ccc(=O)[nH]c3=O)[C@H](O)[C@@H]2O)cc1 | 2.7% | 0.0% | . | . | . | . | -0.4
CC(=O)Nc1ccc(S(=O)(=O)N2CCN(C(=O)N3CCCC3)CC2)cc1 | . | -0.1% | 1.4 | 0.1 | -0.8 | 20.0% | 0.8
c1ccc(N2CCN(c3ncnc4c3oc3ccccc34)CC2)cc1 | -7.1% | 7.7% | -5.9 | 1.6 | 9.2 | ? | 2.9
COc1ccc(N(C(=O)c2ccccc2C)S(=O)(=O)c2cccs2)cc1 | -0.9% | 2.6% | -11.3 | -0.4 | 14.7 | 15.1% | 2.5
O=C(Nc1cccc(OC(F)(F)F)c1)c1ccc(Br)o1 | -2.1% | -6.9%[38.3 µM] | 11.5 | 2.7 | 14.9 | -7.1% | 1.6
O=C1NC(=Nc2ccccc2)CS1 | -3.4% | 0.0% | 13.3 | 4.6 | -1.4 | -1.2% | -0.6
CCCCn1c(N)c(N(CC(C)C)C(=O)CN2C(=O)C3CCCCC3C2=O)c(=O)[nH]c1=O (configuration not stated) | . | -3.6% | 4.5 | . | -7.2 | . | 0.8
CN1C(=CC=C2C=C(I)C(=O)C(I)=C2)C(C)(C)c2ccccc21 | . | 5.1% | -9.1 | ? | -5.3 | 89.1µM* | 15.5
COC(=O)Cc1nnc(Nc2cccc(C)c2)c2ccccc12 | -0.9% | 4.8% | 4.9 | 1.1 | 0.4 | 16.2% | -1.0
Cc1cccc(N(Cc2cc(=O)[nH]c3ccccc23)C(=O)CCl)c1 | -19.7% | 1.5% | -3.8 | -2.1 | -9.0 | ? | 2.5
Cc1ccc(C(=O)C2=C(O)C(=O)N(c3ncccn3)C2c2ccccc2F)o1 (configuration not stated) | 0.7% | -1.6% | -0.1 | . | -19.0 | ? | 0.6
CCCCCCCCCCCCN1C/C(=C\C(=O)OCC)c2cc(C(F)(F)F)ccc2S1(=O)=O | -3.5%&1.8% | -0.8% | -6.1 | 8.1 | 1.3 | 17.7% | -0.8&0.6
COc1ccc2c3c(ccc2c1)C(=O)/C(=C/O)CC3 | ? | -4.0% | . | . | 31.4 | . | 6.7
CCCS(=O)(=O)N1CCN(c2cc3c(cc2[N+](=O)[O-])n(C)c(=O)n3C)CC1 | . | -1.1% | 4.4 | -2.6 | -2.9 | -4.1% | -0.9
Cc1ccc(C)c2[nH]c(=O)c(C(c3nnnn3Cc3ccco3)N3CCc4ccccc4C3)cc12 (configuration not stated) | -12.8% | 2.6% | -3.5 | ? | 9.8 | 20µM* | 1.3
CSc1nnc(-c2sc3cc(C(F)(F)F)cnc3c2-c2ccccn2)n1C | 28.2µM* | 10.4% | 3.4 | 0.4 | 7.1 | 1.4% | -0.2
COc1ccc(OC)c(-c2cc(C(=O)Nc3c(C)nn(Cc4ccc(C)cc4)c3C)no2)c1 | -8.8% | 3.0% | . | . | -7.2 | . | 1.1
COc1cc(OC)c2c(C)c(CC(=O)NCCc3ccccc3OC)c(=O)oc2c1 | 0.4% | 2.1% | . | . | -3.6 | . | -0.6
O=C(C1CCN(S(=O)(=O)c2cccc3cccnc23)CC1)N1CCN(C2CCCC2)CC1 | . | . | 17.0 | 10.5 | . | 28.3% | .
O=C(NC1CCCCC1)N1CCCC(CNS(=O)(=O)Cc2ccccc2)C1 (configuration not stated) | -0.5% | -1.4% | 9.5 | -0.9 | 10.4 | 20.2% | -0.4
Cc1ccc(C(=O)Nc2cccc(C(=O)OCc3cc(=O)n4nc(C5CC5)sc4n3)c2)cc1 | -3.9% | -0.3% | . | . | -16.0 | . | -0.9
C/C(=N\N1CCN(Cc2ccccc2Cl)CC1)c1ccc([N+](=O)[O-])cc1 | . | 0.5% | -10.6 | 2.3 | 10.1 | 7.0% | 0.9

Bioassay records: PubChem BioAssay, National Center for Advancing Translational Sciences (NCATS)
